PINK1 expr mod: changes PINK1 expression. PINK1 immunofluorescence, high-content cytometry, 24 h. Potency, µM (titrated, usually from 76.6 µM), inactives show top-dose activation (PINK1 increase), most hits filed as activators. 0.2% of 410,000 active; active = well fitted activation curve with a large enough effect; inconclusive = small, poorly fitted or top-dose-only effect; inactive = flat fitted curve, though single readings scatter; cell line not stated here;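 note: potency is the fitted concentration of half-maximal effect; % of control where 0% means no effect; nearly all actives have a fitted effect of over 65% in size; a mitochondrial uncoupler was the plate control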
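Cells are seeded, rested 12 hours, then given compound at five concentrations or DMSO for 24 hours. After fixation, blocking and antibody staining, PINK1 amount and mitochondrial localization are scored; CCCP serves as control.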
Six1-Eya2 inh: inhibitors of human Six1/Eya2 interaction; activity change, % (no concentration beside the values); AlphaScreen GST-Six1/His-Eya2 binding, biochemical; hits give low values; control for the full effect not named in the record; Q15475+O00167; 0.56% of 360,000 active; in the data active = activity change below about -65%; inconclusive = about -30% to -65%; inactive = above about -30%; note: % is set by controls: 0 for no effect and ±100 for the full control effect; compound concentration not given in the record
Target sequence (O00167 whole entry, looked up): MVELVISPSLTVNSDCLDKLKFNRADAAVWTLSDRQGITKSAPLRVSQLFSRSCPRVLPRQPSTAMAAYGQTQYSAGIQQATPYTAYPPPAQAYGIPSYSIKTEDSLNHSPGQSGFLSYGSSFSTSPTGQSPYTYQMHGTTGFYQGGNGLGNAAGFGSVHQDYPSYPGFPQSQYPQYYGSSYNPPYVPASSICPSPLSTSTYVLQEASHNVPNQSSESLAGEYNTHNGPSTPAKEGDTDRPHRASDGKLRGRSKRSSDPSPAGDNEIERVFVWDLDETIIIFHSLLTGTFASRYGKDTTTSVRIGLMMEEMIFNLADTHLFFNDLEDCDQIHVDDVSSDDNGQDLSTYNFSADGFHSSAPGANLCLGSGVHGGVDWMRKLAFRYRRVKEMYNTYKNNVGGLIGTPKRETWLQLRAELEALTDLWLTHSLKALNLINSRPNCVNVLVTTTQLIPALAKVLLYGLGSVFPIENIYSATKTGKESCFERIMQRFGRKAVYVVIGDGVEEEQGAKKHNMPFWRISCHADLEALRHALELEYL
Target sequence (Q15475 whole entry, looked up): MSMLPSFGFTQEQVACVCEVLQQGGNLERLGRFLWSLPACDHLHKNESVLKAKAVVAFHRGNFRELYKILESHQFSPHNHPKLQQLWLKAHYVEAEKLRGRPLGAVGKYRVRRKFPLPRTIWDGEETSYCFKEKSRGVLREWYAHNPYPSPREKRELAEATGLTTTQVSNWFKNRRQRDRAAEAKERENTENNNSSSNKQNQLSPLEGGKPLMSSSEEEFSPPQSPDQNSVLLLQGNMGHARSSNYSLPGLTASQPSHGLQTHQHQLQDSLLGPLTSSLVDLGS
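Compounds are tested against tagged Six1 and Eya2 proteins bridged by glutathione donor and nickel acceptor beads; after a one-hour incubation at 37 °C without light, AlphaScreen emission is recorded.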
D2 PAM: positive allosteric modulators of human D2 dopamine receptor; P14416; DiscoveRx D2 beta-arrestin cells, luminescence, 90 min; 100% = 57 uM dopamine signal; potentiation, % (test concentration not listed); 0.23% of 360,000 active; AID 624464; active = potentiation of 50% or more; inconclusive = 30% to 50%; inactive = 30% or less;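 note: compound concentration not given in the record; tested on top of an EC20 dose of dopamine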
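D2 cells co-treated with compound plus 50 nM dopamine (EC20) for 90 min at 37 deg C to detect potentiation. Beta-arrestin recruitment was read as enzyme-fragment luminescence after 1 h at ambient temperature. Full response was set by 57 uM dopamine.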
D2 ag: human D2 receptor agonism in beta-arrestin assay; 0.084% of 360,000 active; DiscoveRx PathHunter D2 beta-arrestin, luminescence, 90 min; 100% = 57 uM dopamine signal; activation, % (test concentration not listed); AID 624465; in the data active = activation above about 40%; inconclusive = about 15% to 40%; inactive = below about 15%; note: compound concentration not given in the record; the text of the record calls up to 30% inactive
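Agonist mode: compounds alone added to overnight-plated D2 PathHunter cells for 90 min at 37 C, with 57 uM final dopamine (EC100) defining full response. Beta-arrestin recruitment detected by chemiluminescent reagent, read after 1 h at ambient temperature.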
TRPML1 ag: human mucolipin-1 channel agonism; Q9GZU1; TRPML1-expressing cells, Ca2+ dye fluorescence, FDSS; host cell line not named in the record; reference of the full effect not given here; activation, % (test concentration not listed); 0.12% of 410,000 active; AID 624414; in the data active = activation above about 50%; inconclusive = about 30% to 50%; inactive = below about 30%; note: 0% is about no effect; the text of the record puts the active cut at 80%
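Kinetic FDSS Ca2+ read in Tet-induced TRPML1-DL cells (ABD Ca8 dye plus quencher, 45-90 min RT loading): baseline, then compound, then 110 s agonist window; EC80 agonist 54-4 at 4uM final added afterwards for a 110 s antagonist window.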
CtBP-E1A blk: inhibitors of CtBP/E1A interaction; AlphaScreen GST-E1A/His-CtBP binding, 1536-well; hits give low values; control for the full effect not named in the record; activity change, % (concentration not given with the values); 0.49% of 340,000 active; AID 651724; in the data active means activity change below about -65%; inconclusive means about -30% to -65%; inactive means above about -30%; note: % is set by controls: 0 for no effect and ±100 for the full control effect
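In 5 uL wells, 23 nL compound meets equimolar GST-E1A and His-CtBP (5X stock 125 nM each) for 2 h, 37 °C. Beads (5X, 50 ug/mL) then 1 h, 37 °C, dark.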
* hit, by the source's call; ? = inconclusive; nt = no result given; & = joins results of further samples; [ ] = remark or other dose.

#	structure	PINK1 expr mod	Six1-Eya2 inh	D2 PAM	D2 ag	TRPML1 ag	CtBP-E1A blk
1	O=C(Nc1ccc(Cl)cc1)Nc1cccc(C(=O)O)c1	-2.4%	3	-5	2.2	1.5	-1
2	Cc1c(N(C(=O)CNC(=O)c2ccccc2)C2(C(=O)NC3CCCC3)CCCCC2)c(=O)n(-c2ccccc2)n1C	0.0%	2	0	-0.8	0.5	0
3	CC(=O)N1N=C(c2ccco2)CC1c1cccs1 (configuration not stated)	nt	1	-2	-2.5	1.5	5
4	Cc1cc(NC(=O)CSc2nnnn2-c2ccc(F)cc2)no1	1.2%	-15	-4	0.0	0.0	-20
5	CC1(C(=O)Nc2ccc3[nH]ncc3c2)CCN1C(=O)CCc1ccccc1 (configuration not stated)	-0.6%	-3	2	-1.7	0.5	2
6	Nc1nnc(Cc2ccc(Cl)cc2)s1	0.5%	1	-6	-1.1	-0.7	2
7	CN1CCN(C(=O)c2cnn3c(C(F)(F)F)cc(-c4cccs4)nc23)CC1	-1.2%	2	-14	0.8	-0.1	-4
8	Cc1ccccc1CSCCNC(=O)Nc1ccccc1	-0.2%	-8	-12	-7.8	0.7	nt
9	OCCC1CN(Cc2cccn2-c2cccnc2)CCN1CCc1ccccc1 (configuration not stated)	-1.2%	-2	-9	-1.1	-0.7	0
10	COc1ccc(Cl)cc1NC(=O)c1[nH]nc(OC)c1[N+](=O)[O-]	5.0%	-7	1	-0.3	2.3	-6
11	O=C(Nc1cccc(C(=O)N2CCCc3ccccc32)c1)c1ccccc1	0.7%	-27	-10	-0.9	1.3	-5
12	NNC(=O)c1oc2nc(-c3ccco3)cc(-c3ccco3)c2c1N	1.7%	?	-7	-2.0	0.7	0
13	COc1ccccc1NC(=O)c1c(Br)cnn1C	0.0%	7	-5	-1.3	-0.2	0
14	Nn1c(SCC(=O)NC2CCS(=O)(=O)C2)nc2scc(-c3ccccc3)c2c1=O (configuration not stated)	-1.2%	-1	-1	1.8	0.3	-26
15	CCn1c(CNC(=O)C23CC4CC(CC(C4)C2)C3)nnc1SCC(=O)Nc1nnc(C)s1	0.4%	6	1	-1.2	-0.5	6
16	CCn1nnc(NC(=O)c2sc3ccccc3c2Cl)n1	-0.7%	-11	-3	1.5	0.5	-25
17	O=C(COc1ccccc1-c1ccccc1)NN=C1CCCC1	8.1%	-10	-3	-4.4	0.6	nt
18	Cc1ccc(C)c(NC(=O)NNC(=O)c2cc3ccccc3cc2O)c1	7.6%	-3	-8	-6.0	0.8	-3
19	COc1ccc(NC(=O)CSCC(=O)N(C)CC(=O)Nc2cccc3ccccc23)cc1	2.2%	-7	0	-3.6	-0.5	5
20	CC(C)(C)c1ccc(OCCSc2nc3ccccc3n2CC(=O)O)cc1	0.5%	1	-2	0.2	-0.2	nt

Values in list order from the entries so far:
Entries 4 to 14 in CtBP-E1A blk read -20, 2, 2, -4, nt, 0, -6, -5, 0, 0, -26

The list goes on.
#	structure	PINK1 expr mod	Six1-Eya2 inh	D2 PAM	D2 ag	TRPML1 ag	CtBP-E1A blk
21	CCc1cc(C(=O)Nc2nnc(C3CC3)s2)sc1C	14%	1	-1	1.2	-0.5	3
22	C/C(=N\NC(=O)COc1cccc(C)c1)c1ccc2ccccc2c1O	3.4%	11	-8	2.4	1.2	7
23	O=C(NCc1ccc(N2CCCC2=O)cc1)NC1CCCCC1	-1.1%	8	-5	3.2	-0.6	3
24	CCCn1c2ccccc2c2cnn(CC(=O)NCCCN3CCCCC3CC)c(=O)c21 (configuration not stated)	0.3%&-12%	-16	-20	-5.9	0.8&0.0	-15
25	O=C(OCc1ccc([N+](=O)[O-])cc1)c1ccc2ccccc2n1	0.3%	5	-6	0.2	2.2	4
26	Cc1ccccc1NC(=O)CSc1ccc(-c2ccco2)nn1	2.0%	2	-18	-1.2	-0.2	7
27	Cc1cc(NC(=O)COc2ccccc2C)ccc1NC(=O)c1cccs1	0.3%	-1	-10	-1.6	-0.3	0
28	CCn1c(SCc2nc(N)nc(N3CCCCC3)n2)nc2c1c(=O)n(C)c(=O)n2C	2.4%	-6	-1	-6.4	-0.2	0
29	CCOC(=O)c1c(C)[nH]c(C(=O)OCC(=O)NCc2ccc(OC)c(OC)c2)c1C	2.2%	0	-7	8.3	3.4	-16
30	CS(=O)(=O)N1CCN(c2ccc(NC(=O)c3ccc([N+](=O)[O-])o3)cc2)CC1	0.9%	-6	-7	9.3	-0.2	nt
31	Cc1ccc(Nc2nnc(SCC(=O)NC3CCCc4ccccc43)s2)cc1 (configuration not stated)	-1.3%	-16	-2	-0.1	0.4	-10
32	COc1ccc(NC(=O)CSc2cn[nH]n2)c(OC)c1	1.3%	-3	-5	-6.5	0.6	0
33	O=C(NCCCO)C(=O)NCC(c1ccc2c(c1)OCO2)N1CCN(c2ccc(F)cc2)CC1 (configuration not stated)	-1.0%	1	8	1.5	0.2	-1
34	COc1ccc(C2=NN(C(=O)CSc3nnc(C)n3C)C(c3ccco3)C2)cc1 (configuration not stated)	-1.9%	2	-12	2.2	0.4	nt
35	Cc1ccc(C(=O)NC(=S)Nc2ccccc2C(F)(F)F)cc1C	0.7%	-15	-18	-3.1	4.3	-7
36	CC(=O)c1ccc(S(=O)(=O)NC2CC(=O)N(c3ccc(Cl)cc3)C2)cc1 (configuration not stated)	1.7%	-1	-9	-5.7	-0.7	3
37	Cc1cc(=O)oc(C)c1C(=O)Nc1ccc2nsnc2c1	-0.9%	19	-3	-2.1	-0.4	29
38	Nc1nc(NCC2CCCO2)nc(Nc2ccccc2)c1[N+](=O)[O-] (configuration not stated)	1.0%	-14	-4	1.5	-0.2	-2
39	Cc1c(NS(=O)(=O)c2ccc(NCCN3CCOCC3)c([N+](=O)[O-])c2)c(=O)n(-c2ccccc2)n1C	0.4%	1	-9	3.2	1.7	6
40	CCOC(=O)CC(NC(=O)c1ccco1)c1ccccc1Cl (configuration not stated)	1.1%	5	-4	-2.7	-1.0	0
41	O=C1Nc2ccccc2N(O)N1c1ccc(S(=O)(=O)N2CCOCC2)cc1	0.2%	5	-16	-0.7	1.5	0
42	O=C(N/N=C/c1ccncc1)c1nc(-c2ccccc2)n2c1CCCCC2	1.1%	-1	-3	-4.0	0.8	4
43	CSC(=S)NN=C(C)c1cccc(C)n1	-3.9%	-91*	-3	3.3	0.6	-93*
44	COc1ccc(C/C(C)=N/Nc2nc(C)cc(=O)[nH]2)cc1	0.0%	0	-10	-5.4	-0.4	3
45	CCc1ccc(C2CC(c3ccc(C)cc3)n3nc(N)nc3N2)cc1 (configuration not stated)	2.7%	6	-5	-4.4	-0.2	-4
46	Cn1c(CNc2ccc(Cl)cc2)nnc1SCC#N	2.1%	5	-1	1.1	-0.8	nt
47	[N-]=C=C1C(=S)NC(=O)[C@H]([n+]2ccccc2)[C@H]1c1ccc(Cl)cc1	2.4%	3	-5	5.1	0.3	3
48	Cc1ccc(-n2nnnc2SCC(N)=O)c(C)c1	1.3%[38.3 µM]	3	-2	-1.5	-0.1	4
49	CC1=C(C(=O)OC2CCCCC2)C(c2cccnc2)n2ncnc2N1 (configuration not stated)	1.5%	0	14	0.8	-0.1	2
50	CCC(C)(CN(C)C)OC(=O)c1ccccc1 (configuration not stated)	2.9%	-3	nt	nt	-0.1	-4
51	Clc1ccc(OCCCN2CCCCC2)c(Br)c1	1.6%	3	-46	1.6	-0.5	0
52	CC(C)CN1C(=O)C(=O)N(CC(=O)NCCCc2ccccc2)C1=O	-1.4%	1	-5	-0.6	-0.8	6
53	CN(CC(=O)Nc1cccc(S(=O)(=O)NC2=NCCC2)c1)Cc1cccc(F)c1	0.9%	16	2	-2.3	-0.5	nt
54	Cc1ccc(C(=O)Nc2sc3c(c2C#N)CCCCC3)cc1C	-0.2%	-4	-14	-1.5	2.1	4
55	COc1cccc(NC(=O)CSc2nnc(NC(=O)C3CC3)s2)c1	-0.3%	5	1	-6.0	0.0	0
56	CCOC(=O)C1=C(O)C(=O)N(c2ccc(S(N)(=O)=O)cc2)C1c1ccc(OC)cc1 (configuration not stated)	10%[38.3 µM]	2	-11	-4.0	-0.5	1
57	Cc1ccc(Cl)cc1NC(=O)CSC(N)=O	-0.4%	0	4	-5.4	-0.4	0
58	O=C1[C@H]2[C@@H](c3ccc(F)cc3)N3C(=O)N(c4ccccc4)C(=O)[C@@]3(Cc3ccc(Cl)cc3)[C@H]2C(=O)N1C1CCCCC1	1.2%	-7	-16	-1.2	1.5	-3
59	O=[N+]([O-])c1cccc2c(N3CCOCC3)ccnc12	-0.6%	0	12	13	0.8	2
60	CN(C)S(=O)(=O)c1ccc(C(=O)OCC2CC2(Cl)Cl)cc1 (configuration not stated)	2.1%	13	-7	-3.3	0.0	10
61	Cc1onc(-c2ccccc2Cl)c1C(=O)N1CCN(c2ccccc2)CC1	-2.1%[38.3 µM]	-4	-5	-3.7	-0.2	-16
62	CCCN(CCC)S(=O)(=O)c1ccc(NS(C)(=O)=O)cc1	-1.6%	10	0	-0.1	-0.3	3
63	O=c1c2ccccc2nc(-c2ccco2)n1/N=C/c1ccccc1O	12%	?	5	1.6	1.9	-11
64	Cc1cc(C(=O)NC(C)C2CCCO2)c(C)o1 (configuration not stated)	-1.6%	2	-23	0.7	-0.3	nt
65	CCOCCCn1c(SCC(=O)Nc2ccc(OC)cc2)nc2ccccc2c1=O	0.5%	-17	-1	3.0	1.3	-9
66	COc1ccccc1NC(=O)CSc1nn2c(=O)c(C)nnc2s1	-1.3%	?	-3	-0.7	0.0	-82*
67	CCOc1cc(C(=O)NC(C)Cc2cccs2)cc(OCC)c1OCC (configuration not stated)	1.5%	2	-7	-4.8	1.1	nt
68	CC(=O)N1CCc2ccccc2C1CC(=O)O (configuration not stated)	0.3%	2	-3	0.1	0.0	7
69	O=S(=O)(NCc1ccc(Cl)cc1)c1ccc(Cl)nc1	1.1%	2	-4	1.3	-0.6	5
70	Cc1ccc(C(=O)N2CCN(S(=O)(=O)c3ccccc3)CC2)cc1	-0.5%	-9	-1	?	1.4	nt
71	CCOC(=O)c1cc2c(ccn2C)n1CC(=O)N1CCC(C)CC1	-0.1%	-4	21	-2.2	5.2	9
72	COc1ccc(-c2cc(C(=O)NCC3CCCO3)c3cc(C)ccc3n2)cc1 (configuration not stated)	2.4%	0	-3	-1.4	0.1	-16
73	c1ccc(CSc2n[nH]c(-c3ccco3)n2)cc1	-1.4%	-3	-13	-2.4	0.9	-7
74	Cc1cccc(N2C(=O)C3C4CC(C(Br)C4Br)C3C2=O)n1 (configuration not stated)	-1.7%	0	-4	-2.0	-0.3	8
75	CCOc1ccc(C(=O)Nc2c(C(N)=O)oc3ccccc23)cc1	0.8%[38.3 µM]	-16	-2	3.9	0.6	-26

Some of these compounds in order of the D2 PAM value, falling:
item | SMILES | Six1-Eya2 inh | D2 PAM | D2 ag | CtBP-E1A blk
63 | O=c1c2ccccc2nc(-c2ccco2)n1/N=C/c1ccccc1O | ? | 5 | 1.6 | -11
70 | Cc1ccc(C(=O)N2CCN(S(=O)(=O)c3ccccc3)CC2)cc1 | -9 | -1 | ? | nt
74 | Cc1cccc(N2C(=O)C3C4CC(C(Br)C4Br)C3C2=O)n1 (configuration not stated) | 0 | -4 | -2.0 | 8

Screening results (PubChem)
